# Compound activity from PubChem.
# VDR inh: vitamin D3 receptor (human) inhibition. Potency, µM, for inactives: max response, negative = inhibition, usual class: inhibitors. hit rate 0.93% among 400,000. P11473. VDR-SRC2-3 peptide fluorescence polarization, 2 h; active means well fitted inhibition curve with a large enough effect; inconclusive means small, poorly fitted or top-dose-only effect, or another doubt; inactive means no such curve, though single readings can be large or run the other way; further: series mostly up to about 120 µM
# Target sequence (P11473 whole entry, looked up): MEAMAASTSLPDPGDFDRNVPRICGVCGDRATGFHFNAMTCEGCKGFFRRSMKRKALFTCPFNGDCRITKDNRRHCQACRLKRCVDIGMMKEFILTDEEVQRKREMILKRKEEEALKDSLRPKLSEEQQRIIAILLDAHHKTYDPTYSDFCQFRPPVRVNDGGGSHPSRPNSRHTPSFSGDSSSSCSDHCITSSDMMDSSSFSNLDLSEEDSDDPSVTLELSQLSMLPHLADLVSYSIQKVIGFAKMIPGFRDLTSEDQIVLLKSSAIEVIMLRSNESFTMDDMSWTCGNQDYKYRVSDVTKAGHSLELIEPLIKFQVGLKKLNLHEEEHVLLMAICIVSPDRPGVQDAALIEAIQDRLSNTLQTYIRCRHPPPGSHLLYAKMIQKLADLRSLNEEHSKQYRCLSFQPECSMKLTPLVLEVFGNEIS
#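 Reagent solutions, kept cold and dark, are dispensed first; compounds are then pinned in at 23 nl, plates briefly spun, and incubated 2 h at ambient temperature. Inhibition of VDR–SRC2-3 peptide binding is read by fluorescence polarization.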
# Active calls of the source: *; ? = inconclusive; & = joins results of further samples. On the % scale 0 is the no-effect control and ±100 the full control effect; potency means the concentration at half of the fitted maximal effect. The list is partial, so the mix of outcomes need not match the whole.
SMILES,VDR inh
COC(=O)C1=C(C)N(c2cc(C)cc(C)c2)/C(=C/c2ccco2)C1=O,-5.9%
Cc1cc(C)c(NC(=O)CS(=O)CC(=O)NCCN2CCCCCC2)c(C)c1 (stereo not given),0.3%
CCCN1CCN(CCNC(=O)Nc2ccccc2Cl)CC1,19.3%
Cc1ccccc1COC(=O)c1ccc(-c2nnn(Cc3ccccc3F)n2)cc1,-0.6%
O=C(Cn1cc(C(F)(F)F)ccc1=O)N/N=C/c1ccc(Cl)cc1Cl,-2.1%
OC1(c2ccc(Br)cc2)CN(c2ccccc2)C2=[N+]1CCS2 (stereo not given),-8.8%
COc1ccc(Cl)cc1NC(=O)CN(C)CC(=O)Nc1ccccc1N1CCOCC1,1.1%
CC1CN(C(=O)N2CCC(C(=O)NC3CCCCCC3)CC2)c2cc(Cl)ccc2O1 (stereo not given),0.4%
O=C1C(Cl)=C(NC2CCCCC2)C(=O)N1Cc1ccccc1,-23.5%
CCN1C(=O)N[C@@H](c2cccc(C(F)(F)F)c2)C(C(=O)OC)=C1C,-19.4%
O=C(NCC1COc2ccccc2O1)C1CCCN(S(=O)(=O)c2cccc3cccnc23)C1 (stereo not given),0.0%
CCCS(=O)(=O)c1nc(S(=O)(=O)c2ccc(C)cc2)c(N2CCN(CCO)CC2)s1,-15.5%
CN1C(=O)Cc2cc(S(=O)(=O)CCC(=O)Nc3ccc(Cl)cc3)ccc21,8.5%
COc1ccc(-c2cn3cccnc3n2)cc1NC(=O)c1c(F)cccc1F,-5.1%
N#Cc1ccc(C(=O)OCC(=O)Nc2cccnc2Cl)cc1,-19.0%
CCCn1nnc(NC(=S)NC(=O)CC)n1,9.0%
O=C(CCc1ccccc1)NNC(=O)c1ccc(NC(=O)c2ccccc2)cc1,-0.3%
CCOC(=O)c1cc(C)sc1N1C(=O)C2C3C=CC(C3)C2C1=O (stereo not given),-5.5%
Cc1cccc(CN2C(=O)CCSc3ccc(Cl)cc32)c1,-17.3%
CN1OC(COC(=O)c2ccccc2)CC1c1ccccc1 (stereo not given),7.8%
Cc1ccc(C2=NC3(CCCCC3)NC2=S)cc1,8.3%
Cc1cc(C)cc(NC(=O)COC(=O)CCCNC(=O)c2ccc(Cl)cc2)c1,-12.0%
COCCNC(=O)CN1CCN(S(=O)(=O)c2ccc3c(c2)CCCC3)CC1,14.4%
CN(CCc1ccccn1)C(=O)Nc1cccc(Cl)c1,-13.0%
COc1ccc(CNC(=O)N2CCN(C(=O)c3ccccc3)CC2)cc1,-8.6%
Cc1cc(N2CCCCC2C)nc(-c2ccccc2O)n1 (stereo not given),3.0%
COCCCNC(=O)CC(C)c1ccccc1 (stereo not given),-4.3%
CCCn1c(Nc2ccccc2)nc2ccccc21,-1.7%
Oc1ccc(CNCC2COc3ccccc3O2)cc1 (stereo not given),23.4%
CCCNC(=O)C1(O)c2cc(Br)ccc2NC(=O)N1c1ccc(Cl)cc1 (stereo not given),12.6%
CCCCCCSc1nnc(-c2cnn(-c3ccccc3)c2-n2cccc2)n1C,-28.8%
Cc1ccc(-c2nn3nnnc3c3ccccc23)cc1,11.7%
CN(C)c1nc(OCCNC(=O)COc2ccc(Cl)cc2Cl)nc(N(C)C)n1,-2.5%
COc1ccccc1NS(=O)(=O)c1ccc(O)cc1,-16.7%
O=C(Nc1ccc(Oc2cccnc2)cc1)c1ccccc1Cl,-2.2%
COc1ccc(NC(=O)C2CC(=O)N(CCc3ccc(Cl)cc3)C2)cc1 (stereo not given),-17.5%
CCN(c1cccc(C)c1)S(=O)(=O)c1csc(C(N)=O)c1,-11.4%
O=C(Cc1ccccc1)NCCSC1CCCCC1,0.1%
O=C1N=C(N2CCCC2)S/C1=C\c1cccc(Br)c1,4.3%
CN1CCc2nc(SCC(=O)Nc3cccc(F)c3)c(C#N)c(-c3cccs3)c2C1,?

# 5 records picked at random from the list so far, as already listed:
SMILES,VDR inh
CN1OC(COC(=O)c2ccccc2)CC1c1ccccc1 (stereo not given),7.8%
CN1C(=O)Cc2cc(S(=O)(=O)CCC(=O)Nc3ccc(Cl)cc3)ccc21,8.5%
O=C1C(Cl)=C(NC2CCCCC2)C(=O)N1Cc1ccccc1,-23.5%
O=C(Cc1ccccc1)NCCSC1CCCCC1,0.1%
O=C(Cn1cc(C(F)(F)F)ccc1=O)N/N=C/c1ccc(Cl)cc1Cl,-2.1%

# Further entries follow.
SMILES,VDR inh
O=C(NCC(=O)N1CCCC(C(F)(F)F)C1)c1ccc2ccccc2c1 (stereo not given),-10.6%
CCOCCCNS(=O)(=O)c1cc(Br)cc2c1N(C(=O)C1CC1)CC2,20.8%
O=C(NCCN1CCOCC1)Nc1ccc(F)cc1,12.8%
COc1ccccc1C1C(C#N)=C(N)N(c2cccnc2)C2=C1C(=O)CC(C)(C)C2 (stereo not given),-4.4%
CCOc1cc(OCC)c(C(=O)CCC(=O)O)cc1OCC,-0.3%
COc1ccc(CCNC(=O)COc2ccc(S(=O)(=O)NC3CCCCC3)cc2Cl)cc1OC,?
COc1ccc(C2c3ccc(O)cc3Oc3ncn4nc(-c5ccco5)nc4c32)cc1OC (stereo not given),0.3%
COC(=O)c1ccc(/C=N\NC(=O)c2ccc(C)cc2Cl)cc1,0.4%
CCc1nn(-c2ccccc2)c2c1-c1cc(OC)c(OC)cc1C1(N2)C(=O)Nc2ccccc21 (stereo not given),6.4%
CC(C)Oc1ccc(CNC(=O)c2ccc3c(c2)nc2n3CCCCC2)cc1,12.4%
Cn1c(CNC(=O)c2ccc(Cl)cc2)nnc1SCC(=O)N1CCOCC1,-17.2%
Cc1c(C(=O)N(Cc2ccc(N(C)C)cc2)CC2CCCO2)oc2ccc(Cl)cc12 (stereo not given),11.5%
Cc1cc2nc3c(=O)n(Cc4ccccc4)c(=O)[nH]c3nc2cc1N,-26.8%
COc1ccc(N2C(=O)C3CCCN3C2c2cccc(C)c2)cc1 (stereo not given),-9.8%
COc1ccc(CCNC(=O)c2cc(=O)[nH]c3ccccc23)cc1,-2.7%
COc1ccc(C2C(C(=O)Nc3cccnc3)=C(C)Nc3nc(-c4cccs4)nn32)cc1 (stereo not given),5.1%
COc1cccc(C(=O)N2CCCC(CCC(=O)NCc3ccc(F)c(F)c3)C2)c1 (stereo not given),-22.4%
COC(=O)CN=Cc1c(C)[nH]n(-c2ccccc2)c1=O,14.3%
COc1ccc(NC(=O)CCn2c(=O)c3cccn3c3cccnc32)c(OC)c1,4.7%
CCOC(=O)C1CCCN(C(=O)c2cccc(S(=O)(=O)N(Cc3ccccc3)c3ccccc3OC)c2)C1 (stereo not given),-19.0%
COc1cccc2c(N/N=C/c3ccccc3)cc(C)nc12,-17.6%
Cc1ccc(NS(=O)(=O)c2ccc(N/N=C/c3ccccc3OCC(=O)O)c([N+](=O)[O-])c2)c(C)c1,-23.7%
CC(NC(=S)NCc1ccccc1)C12CC3CC(CC(C3)C1)C2 (stereo not given),3.2%
CCc1ccc(NC(=O)CCS(=O)(=O)c2cccc3nsnc23)cc1,-2.4%
COc1ccc(-c2ccc(Nc3ccc(S(=O)(=O)N4CCCC4)cc3)nn2)cc1OC,12.0%
O=C(Cn1nc(Br)nc1Br)c1ccccc1,-8.2%
Cc1cccc(-c2noc(CCC(=O)N3CCN(c4cc(C)ccc4C)CC3)n2)c1,-1.2%
Cc1ccc(O/C=C2\OC(=O)c3ccccc32)cc1,-7.8%
O=C(O)[C@H](O)[C@@H](O)[C@H](O)[C@H](O)CO,-9.0%
COCCNC(=O)CN(c1cc(Cl)ccc1OC)S(C)(=O)=O,-5.7%
COc1ccc(C=Nc2ccc3[nH]ncc3c2)c(O)c1,5.8%
C=CCOC(=O)C1=C[C@H](c2csc3ccccc23)[C@@H](CCCO)[C@H](OCC)O1,-10.0%
COc1ccc(N(C(=O)c2snc(C(N)=O)c2N)C(C(=O)NC2CCCC2)c2ccc(OC)c(OC)c2)cc1 (stereo not given),15.6%
COc1cc(/C=C2\SC(=S)N(NC(=O)c3cccnc3)C2=O)ccc1O,-22.9%
O=[N+]([O-])c1cccc(/C=N/NS(=O)(=O)c2ccccc2)c1,-16.2%
Cc1ccc(OCc2nnc(SCC(=O)c3ccccc3)n2Cc2ccco2)cc1,-16.7%
CCn1cc(/C=N/N=C2\CCC3C4CCc5cc(O)ccc5C4CC[C@]23C)c(C)n1 (stereo not given in full),-13.3%
Cc1ccccc1C(=O)N1CC(=O)Nc2ccc(F)cc2C1c1ccc(F)cc1 (stereo not given),-25.3%
Oc1[nH]c2ccc(Br)cc2c1N=Nc1ccc(F)cc1,5.9%
Cc1ccc(NC(=O)CCNC(=O)c2ccccc2Cl)cc1S(=O)(=O)N1CCOCC1,0.6%

# Some of these compounds in order of formula weight, rising:
SMILES,VDR inh
O=[N+]([O-])c1cccc(/C=N/NS(=O)(=O)c2ccccc2)c1,-16.2%
Oc1[nH]c2ccc(Br)cc2c1N=Nc1ccc(F)cc1,5.9%
COc1ccc(N(C(=O)c2snc(C(N)=O)c2N)C(C(=O)NC2CCCC2)c2ccc(OC)c(OC)c2)cc1 (stereo not given),15.6%

# (next part)
SMILES,VDR inh
Cc1nc(-c2ccc(C(=O)N3CCCC3)cc2)cs1,-1.4%
CO[C@@]1(NC(=O)CSCC#N)C(=O)N2C(C(=O)O)=C(CSc3nnnn3C)CS[C@@H]21,1.9%&6.9%
CCC(CC)C(=O)Nc1ccc(Nc2ccccc2)cc1,-5.4%
COc1ccccc1CNC(=O)CN1C(=O)COc2ccc(S(=O)(=O)NC3CCCC3)cc21,-0.9%&16.3%
CN(C)c1nc(SCC#N)nc(N(C)C)n1,-8.0%
CC(C)(C)c1ccc(-c2nnc(SCC(=O)c3ccc4c(c3)OCCO4)o2)cc1,-13.3%
CO[C@@H](CCOCc1ccccc1)C[C@H]1O[C@H](C(=O)OC(C)C)C=C[C@@H]1C,0.6%
Cc1cc(C(=O)CSc2nc3ccccc3[nH]2)c(C)n1Cc1ccco1,-1.4%
COc1ccc(C(CC(=O)O)NC(=O)c2ccccc2)cc1OC (stereo not given),7.3%
CCCCCCCCOc1ccccc1C(=O)Nc1ccc(C(=O)OCC[N+](C)(CC)CC)cc1,?
COc1cccc(N2C(=O)Nc3ccccc3C2(O)C(=O)NCc2ccc3c(c2)OCO3)c1 (stereo not given),-13.2%
O=C1N(c2ccccc2)C(c2ccccc2)C12CCCCC2 (stereo not given),-16.2%
CCCc1cc(=O)[nH]c(Nc2ccc(OC)c(Cl)c2)n1,11.6%
CC1CN(C(=O)CSc2cn(CC(=O)N3CCOCC3)c3ccccc23)CC(C)O1 (stereo not given),0.8%
COc1ccc(S(=O)(=O)NC(C)C(=O)N2CCCC2)cc1Cl (stereo not given),-7.9%
CCCN1C2CCCC1CC(NC(=O)C1CCCCC1)C2 (stereo not given),25.4%
CC(C)N1CCC(N2CCN(C3CCCCCC3)CC2CCO)CC1 (stereo not given),-13.0%
Cc1ccc(CNC(=O)c2cc(-c3ccccc3)nn2Cc2cc(C)no2)cc1,4.8%
CCN1C[C@@H]2[C@@H]3C(=O)N(Cc4ccccc4)C(=O)[C@@H]3[C@](CC)(C(=O)OC)N2C1=NC,14.8%
COc1ccc(C2=C(CC(=O)O)C(=O)CC2)cc1,-5.4%
CCN(C(=O)Cn1c(=O)nc(-c2ccccc2)c2cc(Cl)ccc21)c1cccc(C)c1,7.0%
COc1ccccc1NC(=O)Cn1c(=O)n(CC(=O)NCc2ccccc2Cl)c(=O)c2sccc21,7.0%
CC(C(=O)NC(=O)NC1CCCCC1)N1CCN(C(c2ccccc2)c2ccccc2)CC1 (stereo not given),1.8%
CCOC(=O)c1c(C)c(C(=O)Nc2ccc(F)cc2)c(C)n1C,1.5%
CCOC(=O)c1sc2nc(CC(=O)OC)nc(N3CCN(c4ccc(OC)cc4)CC3)c2c1C,-4.3%
CC1CN(C(=O)c2ccc(C(=O)c3ccccc3)cc2)CC(C)O1 (stereo not given),-7.9%
O=C(CCC(=O)N(c1ccc(F)cc1)C(C(=O)NC1CCCC1)c1ccncc1)Nc1cccnc1 (stereo not given),-3.8%
COc1ccc(NC(=O)C(Cc2c[nH]c3ccccc23)NC(=O)OC(C)(C)C)cc1 (stereo not given),1.3%
CC(=O)c1ccc2c(c1)C1C=CCC1C(c1ccc(S(=O)(=O)N3CCOCC3)cc1)N2 (stereo not given),-24.6%
O=C(O)CCn1c(=S)n(CCC(=O)O)c2ccccc21,-1.3%
CCOC(=O)c1ccc(-c2csc(NC(=O)CN3CCC(C)CC3)n2)cc1,7.2%
CCCn1c(CN2CCCCC2CC)nc2c1c(=O)n(C)c(=O)n2C (stereo not given),-23.1%
CO/N=C(\Cn1ncc(NC2CCCCC2)c(Br)c1=O)c1ccc(Cl)cc1,-1.9%
COc1cccc(-n2cc(CN(C)Cc3nc(Cc4ccccc4)no3)cn2)c1,-1.9%
COc1ccc(CCN(C)Cc2cccc3ccccc23)cc1OC,?
CCc1ccc(CNC(=O)c2cnc3sc4cc(OC)ccc4n3c2=O)cc1,-7.3%
O=C(NCCN1CCCC1)c1ccc(Br)cc1,-22.9%
O=C(OCC(=O)N1CCN(C(=O)c2ccco2)CC1)c1cc(-c2ccc(Cl)c(Cl)c2Cl)nc2ccccc12,2.5%
CCN(CCCNC(=O)c1c(C)cc(=O)oc1C)c1ccccc1,-0.5%

# A second format for some results above:
canonical_smiles | VDR inh
CCOC(=O)c1ccc(-c2csc(NC(=O)CN3CCC(C)CC3)n2)cc1 | 7.2%
CCCn1c(CN2CCCCC2CC)nc2c1c(=O)n(C)c(=O)n2C (stereo not given) | -23.1%
CO/N=C(\Cn1ncc(NC2CCCCC2)c(Br)c1=O)c1ccc(Cl)cc1 | -1.9%
COc1cccc(-n2cc(CN(C)Cc3nc(Cc4ccccc4)no3)cn2)c1 | -1.9%
COc1ccc(CCN(C)Cc2cccc3ccccc23)cc1OC | ?
CCc1ccc(CNC(=O)c2cnc3sc4cc(OC)ccc4n3c2=O)cc1 | -7.3%
